VDR inh – vitamin D3 receptor (human) inhibition; P11473; VDR-SRC2-3 peptide fluorescence polarization, 2 h; Potency, µM, for inactives: max response, negative = inhibition, usual class: inhibitors; 0.93% of 400,000 active; active = well fitted inhibition curve with a large enough effect; inconclusive = small, poorly fitted or top-dose-only effect, or another doubt; inactive = no such curve, though single readings can be large or run the other way; note: series mostly up to about 120 µM
Target sequence (P11473 whole entry, looked up): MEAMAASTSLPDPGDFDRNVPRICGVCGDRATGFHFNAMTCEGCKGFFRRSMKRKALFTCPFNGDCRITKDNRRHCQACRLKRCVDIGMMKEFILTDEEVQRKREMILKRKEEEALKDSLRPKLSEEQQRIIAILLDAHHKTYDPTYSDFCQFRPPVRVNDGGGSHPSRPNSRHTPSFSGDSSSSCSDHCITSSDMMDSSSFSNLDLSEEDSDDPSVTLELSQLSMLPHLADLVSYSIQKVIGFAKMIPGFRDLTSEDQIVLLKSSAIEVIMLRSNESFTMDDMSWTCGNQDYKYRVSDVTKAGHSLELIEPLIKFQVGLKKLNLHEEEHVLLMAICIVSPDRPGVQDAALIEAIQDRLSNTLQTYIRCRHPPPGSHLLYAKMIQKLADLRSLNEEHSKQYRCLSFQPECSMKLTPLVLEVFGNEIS
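Measured by FP: displacement of SRC2-3 coactivator peptide from VDR by library compounds, following a two-hour ambient incubation.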
Active calls of the source: *; ? = inconclusive; & = joins results of further samples. % is set by controls: 0 for no effect and ±100 for the full control effect; potency is the fitted concentration of half-maximal effect. Not all compounds are listed (hit frequency here may not be typical).

> CN(C)S(=O)(=O)c1cccc(NC(=O)COC(=O)c2cc(=O)c3ccccc3o2)c1
  VDR inh = -12%
> O=C(N/N=C/c1ccc(OC(=O)c2cccs2)cc1)c1cccc(F)c1
  VDR inh = -5%
> CN1CCN(C(=O)c2cc3nc(-c4ccco4)cc(C(F)(F)F)n3n2)CC1
  VDR inh = -11%
> O=C(Nc1ccc2c(c1)ncn2C1CCCCC1)c1ccco1
  VDR inh = -13%
> CC1=C(C(=O)OCCOC(C)C)C(c2cccc3ccccc23)NC(=O)N1 (centres undefined)
  VDR inh = ?
> Cc1ccc(C(=O)CCC(=O)Nc2cccnc2)cc1C
  VDR inh = 9%
> O=c1c2ccccc2oc2cc(NCCCN3CCOCC3)ccc12
  VDR inh = 5%
> CCC/C(O)=C1\C(=O)CC(c2ccccc2)CC1=NCCc1c(C)[nH]c2ccc(C)cc12 (centres undefined)
  VDR inh = -8%
> Cc1ccc(S(=O)(=O)N[C@H](C(=O)OCC(=O)NC(=O)C2CCCCC2)C(C)C)cc1
  VDR inh = -3%
> Cc1ccccc1NS(=O)(=O)c1ccc(C(=O)N2CCCC2)cc1
  VDR inh = -5%
> Cc1onc(-c2c(Cl)cccc2Cl)c1C(=O)Nc1ccc(N2CCOCC2)cc1
  VDR inh = 2%
> COc1ccccc1NC(=O)/C(C#N)=C/c1c(C)nn(-c2ccc(F)cc2)c1Cl
  VDR inh = -14%
> Cc1ccc(C(=O)COC(=O)CN2C(=O)C3CC=CCC3C2=O)cc1[N+](=O)[O-] (centres undefined)
  VDR inh = -21%
> CCOc1cc(/C=N/NC(=S)Nc2ccccc2C(F)(F)F)ccc1OCC(=O)N1CCOCC1
  VDR inh = -3%
> Cc1cc(NC(=O)c2cc3n(n2)C(C(F)(F)F)CC(c2ccco2)N3)n(-c2ccccc2)n1 (centres undefined)
  VDR inh = -2%
> CC(C)(C)OC(=O)N1CCCC(C(=O)Nc2ccc(C(=O)N3CCOCC3)cc2)C1 (centres undefined)
  VDR inh = -8%
> Brc1ccc(C2Nc3cccc4cccc(c34)N2)cc1
  VDR inh = -12%
> COc1ccc(C(=O)N2CCC3(CC2)CCN(c2cccc(-c4ccccc4)c2)CC3)cc1
  VDR inh = -8%
> CCN(CC(=O)Nc1ccc(NC(C)=O)cc1)C(=O)c1cccc(Oc2ccccc2)c1
  VDR inh = 0%
> COc1ccc(-c2cc(C(=O)Nc3ccc(S(=O)(=O)Nc4ncccn4)cc3)c3ccccc3n2)cc1
  VDR inh = 6%
> COc1ccccc1C(=O)Nc1cccc(Oc2c(F)c(F)c(F)c(F)c2F)c1
  VDR inh = 7%
> COc1cccc(-c2nc(N(C)Cc3ccco3)c3ccccc3n2)c1
  VDR inh = ?
> O=C(Cn1c(=O)cnc2ccccc21)Nc1cc(Cl)ccc1N1CCOCC1
  VDR inh = -12%
> COc1ccc(NC(=O)C2CC(=O)N(c3ccccc3Cl)C2)c(OC)c1 (centres undefined)
  VDR inh = 5%
> Cc1cccc(CCNC(=O)CN(c2ccc(C(C)C)cc2)S(=O)(=O)c2c(C)nn(C)c2C)c1
  VDR inh = -11%

> NC(=O)c1ccc[n+](Cc2ccc(-c3ccccc3)cc2)c1
  VDR inh = -12%
> CN(C(=O)CCN1C(=O)S/C(=C\c2ccccc2)C1=O)C1CCS(=O)(=O)C1 (centres undefined)
  VDR inh = 18%
> CCn1c(SCC(=O)N2CCCc3ccccc32)nnc1-c1cccs1
  VDR inh = -6%
> C=CCOc1ccc(C2C(C(=O)c3ccc(C)o3)=C(O)C(=O)N2Cc2cccnc2)cc1 (centres undefined)
  VDR inh = 2%
> O=C(O)c1cccc(S(=O)(=O)Nc2ccc(O)cc2Sc2nc3ccccc3s2)c1
  VDR inh = ?
> C/C(=N\NC(=O)c1nnn(-c2nonc2N)c1CN1CCCCCC1)c1ccc(Br)cc1
  VDR inh = -20%
> COc1ccc([C@@H]2[C@@H]3C(=O)N(C(C)(C)C)C(=O)[C@@H]3[C@]3(C)C(=O)N(c4ccccc4)C(=O)N23)cc1
  VDR inh = -6%
> Cc1ccc(N2CC(C(=O)Nc3cccnc3)CC2=O)cc1 (centres undefined)
  VDR inh = -16%
> Cc1ccc(NC(=O)CN(c2cc(C)cc(C)c2)S(=O)(=O)c2c(C)noc2C)nc1
  VDR inh = 7%
> O=C(Nc1ccc(S(=O)(=O)NCCc2ccccc2)cc1)c1ccncc1
  VDR inh = 0%
> CN(C)S(=O)(=O)c1cccc(NC(=O)c2cc(-c3cccs3)nc3ccccc23)c1
  VDR inh = -20%
> COc1ccc2c(c1)CCCC21NC(=O)N(CC(N)=O)C1=O (centres undefined)
  VDR inh = 0%
> CN1C(=O)CC(C(=O)O)SC1=Nc1cccc(C(F)(F)F)c1 (centres undefined)
  VDR inh = 10%
> Cn1nc(C(C)(C)C)c([N+](=O)[O-])c1C(=O)NC(C)(C)C
  VDR inh = -15%
> c1ccc(-c2nc3ccccc3nc2N2CCOCC2)cc1
  VDR inh = -10%
> O=C(c1ccco1)N1CCN(Cc2nc3ccccc3[nH]2)CC1
  VDR inh = -10%
> CCOc1ccc(N(C(=O)Nc2ccccc2)C2=NCCC2)cc1
  VDR inh = 15%
> CCN(CC)CCNC(=O)c1cc(-c2ccco2)nc2ccccc12
  VDR inh = -5%
> CCN(CC)CCCCN1c2ccccc2Oc2ccc(Cl)cc21
  VDR inh = ?
> COc1ccc(S(=O)(=O)CC2(O)CCN(C(=O)C(C)(C)C)CC2)cc1
  VDR inh = -22%
> Cc1ccc(N(CC(=O)N2CCn3c2nc2ccccc23)S(=O)(=O)c2c(C)n[nH]c2C)cc1
  VDR inh = 6%
> O=C(Cn1cnc2c(nnn2Cc2ccccc2F)c1=O)OCc1ccccc1
  VDR inh = 16%
> O=C(c1cccc(Br)c1)c1cn(-c2ccccc2)nc1C(=O)c1ccccc1
  VDR inh = -13%
> O=C(c1ccc(N2CCOCC2)cc1[N+](=O)[O-])N1CCOCC1
  VDR inh = 2%
> CC(=O)Nc1ccc(S(=O)(=O)N[C@@H](C)C(=O)OCc2ccc(Cl)cc2)cc1
  VDR inh = 12%

> Cc1ccc(S(=O)(=O)N/N=C/c2cc([N+](=O)[O-])ccc2O)cc1[N+](=O)[O-]
  VDR inh = ?
> COc1ccc(C(OC(=O)c2ccco2)C(=O)NC(C)(C)C)cc1 (centres undefined)
  VDR inh = 13%
> CCC(=O)c1ccc(CCCCCC(=O)O)s1
  VDR inh = 5%
> O=C(COC(=O)CCCN=C1NS(=O)(=O)c2ccccc21)NC(=O)NC1CCCC1
  VDR inh = -2%
> N#Cc1nc(N2CCCCC2)nc(N(c2ccccc2)c2ccccc2)n1
  VDR inh = -20%
> O=C(O)COc1ccc2oc3c(c2c1)CCCC3
  VDR inh = -15%
> CN(CCn1ccnc1)Cc1cn(-c2ccccc2)nc1-c1ccc2c(c1)OCO2
  VDR inh = -7%
> Cc1cc([N+](=O)[O-])nn1CC(=O)N1CCCc2ccccc21
  VDR inh = -13%
> CC1(C)C2CCC1(C)C(OC(=O)c1ccc(O)cc1)C2 (centres undefined)
  VDR inh = -1%
> O=c1[nH]c2cccnc2n1Cc1ccccc1
  VDR inh = 18%
> Cc1cc(OCc2cn3cccnc3n2)ccc1Cl
  VDR inh = -7%
> CCOc1ccc(CCNC(=O)CCc2nc(-c3ccc(C)cc3)no2)cc1OCC
  VDR inh = -15%
> Brc1ccc(C2=CC(c3ccco3)n3ncnc3N2)cc1 (centres undefined)
  VDR inh = -30%
> O=C(Nc1nc2c(s1)CCCC2=O)c1cnccn1
  VDR inh = 20%
> CN(C)S(=O)(=O)c1ccc(NC(=O)CNc2cc(S(=O)(=O)N3CCCC3)ccc2OCC(F)(F)F)cc1
  VDR inh = ?
> COc1ccc(S(=O)(=O)CCC(=O)NC2CCCCC2)cc1
  VDR inh = -9%
> CCC1CCCCN1C(=S)NCc1ccccc1 (centres undefined)
  VDR inh = 6%
> CC1(C)CC(NC(=O)CSc2ccccc2)CC(C)(C)N1
  VDR inh = 12%
> Cc1nn(C)c2c1c(C(F)(F)F)cc(=O)n2CC(=O)N1CCC(C)CC1
  VDR inh = 5%
> O=C(CN1CCN(Cc2ccccc2)CC1)Nc1ccc(S(=O)(=O)N2CCOCC2)cc1
  VDR inh = -16%
> CCOC(CNC(=O)C(=O)NCC(c1ccco1)N1CCN(c2ccc(OC)cc2)CC1)OCC (centres undefined)
  VDR inh = -5%
> COc1ccccc1N(C)S(=O)(=O)c1ccc(C)c(C(=O)NCc2ccccn2)c1
  VDR inh = -7%
> CC(Oc1ccc(Cl)cc1Cl)C(=O)Nc1ccc(N2CCN(C)CC2)cc1 (centres undefined)
  VDR inh = -11%
> COc1ccc(S(=O)(=O)/C(C#N)=C/Nc2cccc(OC)c2)cc1
  VDR inh = 6%
> Cn1c(=O)c2c(nc(SCC(=O)N3CCCCCC3)n2C)n(C)c1=O
  VDR inh = 15%

Next part; the last 7 above are carried over.
> Cc1nn(C)c2c1c(C(F)(F)F)cc(=O)n2CC(=O)N1CCC(C)CC1
  VDR inh = 5%
> O=C(CN1CCN(Cc2ccccc2)CC1)Nc1ccc(S(=O)(=O)N2CCOCC2)cc1
  VDR inh = -16%
> CCOC(CNC(=O)C(=O)NCC(c1ccco1)N1CCN(c2ccc(OC)cc2)CC1)OCC (centres undefined)
  VDR inh = -5%
> COc1ccccc1N(C)S(=O)(=O)c1ccc(C)c(C(=O)NCc2ccccn2)c1
  VDR inh = -7%
> CC(Oc1ccc(Cl)cc1Cl)C(=O)Nc1ccc(N2CCN(C)CC2)cc1 (centres undefined)
  VDR inh = -11%
> COc1ccc(S(=O)(=O)/C(C#N)=C/Nc2cccc(OC)c2)cc1
  VDR inh = 6%
> Cn1c(=O)c2c(nc(SCC(=O)N3CCCCCC3)n2C)n(C)c1=O
  VDR inh = 15%
> CSc1nc(-c2ccco2)nn1C(=O)CCc1ccccc1
  VDR inh = ?
> O=C(COc1ccc(S(=O)(=O)Nc2ccccc2)cc1)N1CCOCC1
  VDR inh = 1%
> Cc1ccc(Cn2c(C(=O)O)c(CNC3CCCCCC3)c3ccc(C)cc32)cc1
  VDR inh = 2%
> CCOc1ccc(CN(C)C(=O)CNC(=O)c2cc(OC)c(OC)c(OC)c2)cc1
  VDR inh = -8%
> COc1ccc([C@H](C)NC[C@H](O)c2ccc(O)c(NC=O)c2)cc1
  VDR inh = -20%
> CCc1ccc(S(=O)(=O)n2c(C)nc3ccccc32)cc1
  VDR inh = -15%
> O=C(NCc1ccco1)c1cc(-c2cccs2)on1
  VDR inh = 2%
> Nc1cccc2c1C(=O)N(C(=O)/C=C/c1cccc(Br)c1)C2=O
  VDR inh = 40µM*
> CO/N=C(/CS(=O)Cc1ccccc1Cl)c1ccc(Cl)cc1Cl (centres undefined)
  VDR inh = -10%
> COc1ccccc1C(=O)NNC(=O)Cc1ccccc1
  VDR inh = 12%
> CCCCC1OC23CCCCC2C(C#N)(C(=N)O3)C1(C#N)C#N (centres undefined)
  VDR inh = -26%
> O=C(NCCOc1ccccc1)c1ccccc1
  VDR inh = -18%
> O=C(c1cccs1)N1CCN(C(=O)C2CCCO2)CC1 (centres undefined)
  VDR inh = 5%
> COc1ccc(-c2nc3ccc(NC(=O)COC(C)=O)cc3c(=O)n2Cc2ccccc2)cc1COc1ccc(NC(C)=O)cc1
  VDR inh = -21%
> CCC(=O)Nc1nonc1-c1nc2ccccc2n1Cc1ccc(Cl)c(Cl)c1
  VDR inh = 13%
> Cc1cc(=O)oc2cc(OC(C)C(=O)NC3CCCC3)ccc12 (centres undefined)
  VDR inh = 2%
> O=C(Nc1ccc(CN2CCOCC2)cc1)c1cccs1
  VDR inh = 18%
> CCCCCn1c(=O)[nH]c2cc(C(=O)NCCCN3CCC(C)CC3)ccc2c1=O
  VDR inh = 18%
> Cn1c(=O)c2c(-c3ccccc3Br)n(CCc3ccccc3)cc2n(C)c1=O
  VDR inh = -6%
> C[C@H](NC(=O)c1nc[nH]c1C(=O)N1CCc2ccccc2C1)c1ccccc1
  VDR inh = 4%
> Cc1nc2ccc(NC(=O)c3cc(S(=O)(=O)N4CCOCC4)ccc3C)cc2s1
  VDR inh = -1%
> CCOC(=O)N/N=C(\c1ccccc1)C(O)c1ccccc1 (centres undefined)
  VDR inh = -18%
> Cn1c(=O)c2sccc2n2c(CCC(=O)NCc3ccccc3Cl)nnc12
  VDR inh = -7%
> CCOc1ccc(NS(=O)(=O)c2cc(Cl)ccc2OC)cc1
  VDR inh = 19%
> CN1CCN(C2=Cc3ccccc3Sc3cc(F)c(F)cc32)CC1
  VDR inh = 9%

> COc1ccc(C(=O)NC(=S)SCC(=O)O)cc1
  VDR inh = 3%
> COC(=O)c1ccccc1NC(=O)Cc1ccccc1OC
  VDR inh = -1%
> CC(Sc1nc(-c2ccccc2)cc(C(F)(F)F)n1)C(=O)N1CCCC1 (centres undefined)
  VDR inh = -7%
> CCOC(=O)N1CCN(c2c(NCCCN(C)c3ccccc3)c(=O)c2=O)CC1
  VDR inh = 1%
> N/C(=N\N=C\c1cccc([N+](=O)[O-])c1)c1nonc1N
  VDR inh = -5%
> Cc1ccccc1NC(=S)N(CCN(C)C)C(C)c1cccnc1 (centres undefined)
  VDR inh = -2%
> COc1ccccc1C(=O)C1Nc2ccccc2-c2nnc(SC)nc2O1 (centres undefined)
  VDR inh = -13%
> C[C@H]1CN([C@@H](C)CO)C(=O)c2cccc(NC(=O)c3cnccn3)c2O[C@@H]1CN(C)C(=O)Nc1ccc2c(c1)OCO2
  VDR inh = -14%
> NC(=O)c1cccc2cc3ccccc3cc12
  VDR inh = 14%
> O=C(NC(=S)Nc1cnc2ccccc2c1)c1ccccc1
  VDR inh = -22%
> O=C(NCc1ccccc1Br)c1ccco1
  VDR inh = 6%
> COc1ccc(S(=O)(=O)N2CCN(C3CCCCCCC3)CC2)cc1
  VDR inh = -6%&-16%
> O=C(CN1C(=O)CCn2nc(-c3ccccc3)cc21)NCc1ccc(F)cc1
  VDR inh = 10%
> O=C(O)c1ccc(S(=O)(=O)NC2CC2)cc1
  VDR inh = -5%
> CCOCCOC(=O)c1[nH]c2c(c1C)C(=O)CC(c1cccs1)C2 (centres undefined)
  VDR inh = 8%
> CN1CCN(CC#CC2(O)CCCCC2)CC1
  VDR inh = 0%
